HSV augment: enhancers of HSV replication in host cells, fold increase, host cell viability; maximum fold increase; hit rate 0.005% among 220,000; HSV replication augmentation in cells; AID 1956, 2009;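 active = peak rise of 1.5-fold or more in the series; tested in PC3 cells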;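 also: first round at 10 µM; read as green reporter fluorescence; hits show the peak of a series up to 25 µM; 1 = signal of infected wells without compound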
PKD1 kinase inh: inhibitors of human PKD1 kinase, biochemical, fluorescence polarization; AID 797, 2007; PKD1 kinase fluorescence polarization assay; inhibition, %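 (about 10 µM by stock and volumes)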; Serine/threonine-protein kinase D1 (Homo sapiens), Q15139; hit rate 0.056% among 200,000;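 active = inhibition of 50% or more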;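 also: controls were vehicle for no effect and a reference inhibitor for full effect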
INS promoter inh: inhibitors of insulin promoter-driven GFP, primary screen, imaging, TRM-6 cells (human fetal islet line), eGFP reporter, cell count | reporter expression induced with tamoxifen | inhibition, % at 2 µM | hit rate 0.9% among 130,000 | AID 1273, 2008;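 active = inhibition above the mean plus 3 SD, with well images judged a real hit on visual review, cut at about 60% in these data, passing the limit was not always enough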
RGS16-Gao HTS: modulators of RGS16 binding to Galphao, primary screen, biochemical, human proteins, multiplexed bead flow cytometry. Regulator of G-protein signaling 16 (Homo sapiens) + Guanine nucleotide-binding protein …. bead-based flow cytometry RGS16-Galphao binding, fluorescence; actives lie on both sides. binding response (% of control), % at 10 µM. hit rate 0.38% among 220,000. AID 1441, 2008;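 active = below 25% or above 175%, edge rows of some plates excepted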;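 also: Galphao activated by GDP with aluminum fluoride before binding; 100% = wells without compound and 0% = beads without RGS; some results beyond the cut were filed as inactive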
Target sequence (O15492 whole entry, looked up): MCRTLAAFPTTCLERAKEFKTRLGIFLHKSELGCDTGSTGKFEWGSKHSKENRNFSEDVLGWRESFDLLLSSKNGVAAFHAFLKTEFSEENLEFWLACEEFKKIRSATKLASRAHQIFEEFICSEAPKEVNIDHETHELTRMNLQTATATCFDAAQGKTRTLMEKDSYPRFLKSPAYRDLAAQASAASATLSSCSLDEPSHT
Target sequence (P09471 whole entry, looked up): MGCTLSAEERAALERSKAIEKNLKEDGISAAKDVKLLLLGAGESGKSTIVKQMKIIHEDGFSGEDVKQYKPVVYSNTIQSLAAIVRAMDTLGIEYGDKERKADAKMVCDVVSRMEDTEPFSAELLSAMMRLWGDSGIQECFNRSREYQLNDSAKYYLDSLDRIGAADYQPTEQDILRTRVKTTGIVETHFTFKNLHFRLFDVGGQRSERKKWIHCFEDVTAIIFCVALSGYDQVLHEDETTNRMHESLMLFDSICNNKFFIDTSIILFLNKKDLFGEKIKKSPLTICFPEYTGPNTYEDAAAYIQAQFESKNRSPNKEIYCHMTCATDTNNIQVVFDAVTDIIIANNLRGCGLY
GALR2 ag: GALR2 receptor agonists, primary screen, cell-based. Galanin receptor type 2 (Homo sapiens), O43603. GALR2-expressing cells, agonist activation read-out. hit rate 0.48% among 140,000. AID 803, 2007. activation, %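 (tested at 5 µM)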;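 active = above mean plus 3 SD of all compounds, about 5% in these data, not always enough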;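 also: 0% = vehicle buffer wells and 100% = reference agonist at full effect; tested in CHO reporter cells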
Target sequence (O43603 whole entry, looked up): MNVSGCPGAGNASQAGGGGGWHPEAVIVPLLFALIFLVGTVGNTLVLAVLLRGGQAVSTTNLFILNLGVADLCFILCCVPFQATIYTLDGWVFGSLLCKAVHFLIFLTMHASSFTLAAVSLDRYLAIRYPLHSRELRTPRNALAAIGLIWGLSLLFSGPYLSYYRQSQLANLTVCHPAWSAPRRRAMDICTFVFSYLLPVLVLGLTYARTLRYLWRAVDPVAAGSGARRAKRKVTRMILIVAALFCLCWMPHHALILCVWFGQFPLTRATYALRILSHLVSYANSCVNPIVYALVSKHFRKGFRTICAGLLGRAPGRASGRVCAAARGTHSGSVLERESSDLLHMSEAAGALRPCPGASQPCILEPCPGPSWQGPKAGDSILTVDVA
INS promoter inh cell count: recorded beside INS promoter inh, whose call it bears; normalized cell count, %; measured here: cell count, toxicity; reference of the scale not given here;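 cells exposed to compound for 48 h; stained nuclei by imaging scaled within each plate; lower means fewer cells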
HSV augment primary fold: second read-out of HSV augment, no call of its own (marks repeat the call); fold increase; compound at 10 µM; measured here: primary screen fold increase 10 uM; tested in PC3 cells;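 GFP signal in the first replicate; 1 = infected wells without compound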
* hit, by the source's call; i = inactive; · = no result given; [ ] = dose if it differs, or a comment.

SMILES	HSV augment	HSV augment primary fold	PKD1 kinase inh	INS promoter inh	INS promoter inh cell count	RGS16-Gao HTS	GALR2 ag
O=C(O)C1CC(=O)N(c2ccc(OCc3ccc(Cl)cc3Cl)cc2)C1 (stereo not drawn)	i	1	3	39	53	98	-1.1
COc1ccc(/C=C2\SC(=S)N(CC(=O)OCC(=O)Nc3cc(Cl)cc(Cl)c3)C2=O)cc1	i	0.98	·	·	·	99	·
CCCCNC(=O)c1onc(CSc2ccc(C(C)C)cc2)c1C(=O)O	i	0.99	3	·	·	139	-2.6
CSc1cc(C)[nH]c(=O)n1	i	0.85	0	-46	59	103	·
Cc1cccc(C)c1OCC(=O)N(Cc1ccc(N(C)C)cc1)C1CCS(=O)(=O)C1 (stereo not drawn)	i	1.1	·	·	·	98	·
Cc1ccc(C)n1NC(=O)c1ccc(Cl)cc1	i	0.97	-5	71	74	97	-2.7
CCOC(=O)c1c(NC(=O)CC)sc(C(C)=O)c1C	i	0.93	2	-73	152	94	0.7
O=C(N/N=C/c1ccc(-c2cccc([N+](=O)[O-])c2)o1)c1ccccc1O	i	1	-3	17	52	102	·
COc1nc(C)nc2c1ccc1ccccc12	i	0.93	-5	i	93	146	-2.9
NS(=O)(=O)c1cc2c(cc1Cl)NC(C1C[C@H]3C=C[C@@H]1C3)NS2(=O)=O (stereo partly drawn)	i	0.96	-11	9	70	102	-1.8
CNC(=S)NCc1ccc2[nH]c(C)cc2c1	i	0.86	-8	55	111	107	·
O=C(/C=C/Nc1ccc(F)cc1)c1ccc(Br)cc1	i	1.1	-4	·	·	103	·
O=C(NCCc1ccc(Cl)cc1)C1CCC(=O)N1Cc1ccccc1Cl (stereo not drawn)	i	1	-4	14	36	86	-1.9
COc1ccc(C(CC(=O)N2CCOCC2)c2c(OC)cc(OC)c3ccc(=O)oc23)cc1 (stereo not drawn)	i	0.58	·	·	·	96	·
CCOC(=O)C1=NN(c2ccc(Cl)cc2)C(c2ccccc2)CC1=O (stereo not drawn)	i	0.89	10	-24	51	·	2.1
C=CCOc1ccc(CNc2nn[nH]n2)cc1OC	·	·	-3	21	93	98	-1.4
CCCN(CCC)C(=O)C1CCN(c2cc(C)nc3c(-c4ccc(OC)c(OC)c4)c(C)nn23)CC1	i	0.91	15	·	·	102	-0.8
Cc1ccc(C(=O)N/C(=C\c2ccc(Cl)cc2)C(=O)NCCCN2CCOCC2)cc1	i	0.85	-1	0	76	124	-1.0
CN(C(=O)c1c[nH]c(=O)cc1C(F)(F)F)c1ccc(Cl)c(Cl)c1	i	1.1	·	·	·	105	·
NC(=O)CSc1ncc(-c2ccc([N+](=O)[O-])cc2)[nH]1	i	0.94	0	21	92	100	·

Reprinted from the listing (2 entries):
SMILES	HSV augment	HSV augment primary fold	PKD1 kinase inh	INS promoter inh	INS promoter inh cell count	RGS16-Gao HTS	GALR2 ag
O=C(NCCc1ccc(Cl)cc1)C1CCC(=O)N1Cc1ccccc1Cl (stereo not drawn)	i	1	-4	14	36	86	-1.9
COc1ccc(C(CC(=O)N2CCOCC2)c2c(OC)cc(OC)c3ccc(=O)oc23)cc1 (stereo not drawn)	i	0.58	·	·	·	96	·

(further entries)
SMILES	HSV augment	HSV augment primary fold	PKD1 kinase inh	INS promoter inh	INS promoter inh cell count	RGS16-Gao HTS	GALR2 ag
Cc1ccc(NC(=O)CN2CCC(NC(=O)C3CCCCC3)CC2)c(Br)c1	i	1	-1	11	163	106	0.5
Cc1cc(C(=O)N(C)Cc2ccc(Br)cc2)no1	i	1	-6	·	·	99	-0.5
CC(=O)Nc1ccc(N=C(C2=C(O)c3ccccc3C2=O)c2ccccc2)cc1	i	0.96	-1	·	·	97	·
CCN(CC)C(=O)COc1ccc(S(=O)(=O)N2CCOCC2)cc1	i	1.1	-4	24	225	100	-2.7
COc1ccc(CCNC(=O)C2CC(c3cccc(F)c3)=NO2)cc1 (stereo not drawn)	i	0.91	·	·	·	99	·
COC(=O)c1sccc1NC(=O)CSc1ccccc1NS(=O)(=O)c1ccccc1Cl	i	0.84	-4	4	102	145	-1.3
NNC(=O)c1cnn(-c2ccccc2)c1-n1cccc1	i	0.99	5	·	·	95	·
COCCn1c(SCC(=O)NCc2ccco2)nnc1C(C)C	i	1	-8	-307	43	94	-2.4
COc1ccc(CCN2C(=O)CC(C(N)=O)SC2=Nc2ccccc2)cc1 (stereo not drawn)	i	0.98	·	·	·	98	·
COC(=O)c1cc(C(=O)OCC(=O)N2c3ccccc3NC(=O)C2(C)C)cc([N+](=O)[O-])c1	i	1	-8	44	71	115	-1.0
COCCCNc1oc(-c2ccccc2OC)nc1C#N	i	0.83	8	-71	100	103	-4.3
O=C(COc1cccc(NC(=O)c2ccco2)c1)c1ccc(F)cc1	i	0.83	1	10	133	101	-2.3
Cn1cnnc1SCc1ccc(C(=O)NN)cc1	i	1	-2	·	·	103	·
Cc1ccc(C(=O)COC(=O)CNC(=O)CN2C(=O)c3ccccc3C2=O)cc1	i	1	-10	·	·	123	0.0
Nc1c(-c2n[nH]c(=S)n2-c2ccc(Cl)cc2Cl)cnn1-c1ccccc1	i	0.99	·	·	·	88	·
C=CCn1c(SCC(=O)c2ccc(CNC(C)=O)o2)nc2ccccc2c1=O	i	0.99	-4	-18	118	99	-0.4
Cc1onc(-c2ccc(Cl)cc2)c1-c1ccnc(SCC(=O)Nc2cc(Cl)cc(Cl)c2)n1	i	1	·	·	·	99	·
CN(C)c1ccc(/C=N/NC(=O)c2ccc(CN3C(=O)c4cccc5cccc3c45)cc2)cc1	i	0.9	-6	·	·	100	-0.3
COc1ccc(Cl)c(Cn2c(NCc3ccccn3)nc3c2c(=O)n(C)c(=O)n3C)c1	i	0.96	-1	-79	100	95	-2.2
O=C1Nc2ccc(S(=O)(=O)NCc3ccco3)c3cccc1c23	i	1	15	24	70	·	-0.1
O=C(N/N=C/c1ccccc1)c1c(O)c2ccccc2[nH]c1=O	i	1	0	·	·	126	-2.0
O=C(N1CCOCC1)C12CC3CC(C1)CC(c1ccccc1)(C3)C2	i	1.1	-6	-8	158	105	0.0
Cc1ccc2nc(CSc3nc(C)cc(C)c3C#N)[nH]c2c1	i	0.95	5	·	·	107	3.0
Cc1c2c(c(C)n1C)C(C(=O)NC1CCCCC1)N(Cc1ccccc1)C2=O (stereo not drawn)	i	1.2	-6	0	77	85	·
Cc1nnc(SCC(=O)N2CC(=O)Nc3ccccc32)s1	i	0.96	0	·	·	95	·
Cn1cc(Br)c(C(=O)Nc2sc3c(c2C#N)CCC3)n1	i	0.91	·	·	·	90	·
COc1ccc(C(=O)/C=C/Nc2ccc(S(=O)(=O)Nc3nc(C)cc(C)n3)cc2)c(OC)c1	i	1.3	·	·	·	100	·
COc1ccc(-n2cc(CNC3CCOCC3)c(-c3cccc(F)c3)n2)cc1	i	0.91	-11	·	·	102	·
O=C(O)C1=C[C@@H](c2ccc3c(c2)OCO3)C[C@@H](OCCCCO)O1	i	0.86	-4	·	·	101	·
O=C(O)CSc1cccc[n+]1[O-]	i	0.96	-1	40	94	105	-1.9
CN(C)c1oc(-c2ccccc2[N+](=O)[O-])nc1C#N	i	1	·	·	·	79	·
Cc1ccc(N(C(=O)c2ccccc2Cl)C2=NC(C)CS2)c(C)c1 (stereo not drawn)	i	1.1	-9	-4	178	64	-1.4
O=c1cc(CNc2cc(Cl)ccc2Cl)nc2sccn12	i	0.91	6	0	124	102	-1.8
CC(=O)c1cccc(N(CC(=O)N2CCOCC2)S(C)(=O)=O)c1	i	1	-9	-412	41	96	-2.3
C=CCC(c1ccccc1F)N(CCN1CCOCC1)C(=O)Nc1cccc(Cl)c1 (stereo not drawn)	i	1	-4	-34	124	104	-1.2
Cc1cc(NC(=O)CSc2nc(CCC3CCCC3)nc3ccccc23)no1	i	0.84	-9	-11	56	94	-0.1
COc1cccc(N2CCN(C(=O)CN(C)S(=O)(=O)c3ccc4c(c3)CCC(=O)N4)CC2)c1	i	0.77	-3	·	·	113	-3.5
CCOC(=O)c1cc(Br)c(=O)n2ccccc12	·	·	-4	11	156	104	-2.3
Cc1[nH]c2ccccc2c1C(=O)CSc1ccc(Cl)cc1	i	0.97	-2	·	·	102	·
CCOc1cc(S(=O)(=O)N2CCCCC2)ccc1Cl	·	·	10	·	·	-53	-2.4

Reformatted: entries from further up
> C=CCC(c1ccccc1F)N(CCN1CCOCC1)C(=O)Nc1cccc(Cl)c1 (stereo not drawn)
  HSV augment = i	HSV augment primary fold = 1	PKD1 kinase inh = -4	INS promoter inh = -34	INS promoter inh cell count = 124	RGS16-Gao HTS = 104	GALR2 ag = -1.2
> Cc1cc(NC(=O)CSc2nc(CCC3CCCC3)nc3ccccc23)no1
  HSV augment = i	HSV augment primary fold = 0.84	PKD1 kinase inh = -9	INS promoter inh = -11	INS promoter inh cell count = 56	RGS16-Gao HTS = 94	GALR2 ag = -0.1

(more compounds)
SMILES	HSV augment	HSV augment primary fold	PKD1 kinase inh	INS promoter inh	INS promoter inh cell count	RGS16-Gao HTS	GALR2 ag
Fc1ccc(Cn2c(SCc3ccc(F)c(F)c3)nnc2C(F)(F)F)cc1	i	0.94	2	-92	101	83	-1.9
Cc1ccc(S(=O)(=O)C(F)(F)F)cc1NC(=O)c1cccnc1	i	1	-11	15	131	181*[activator]	-3.4
Nc1cc(Cl)ccc1N1CCCC1	i	0.94	-9	0	110	111	·
OC(CNC1CCCCC1)COCCOc1ccc(Br)cc1 (stereo not drawn)	i	0.78	-16	-40	95	114	-0.5
COc1ccc(C(C)(C)C)cc1S(=O)(=O)N1CCC(C(N)=O)CC1	i	1.1	-4	31	88	100	0.7
O=C(Cc1cc(=O)[nH]c(=O)[nH]1)N1CCN(C(=O)c2ccco2)CC1	i	1.1	1	20	169	99	-1.6
CNS(=O)(=O)c1cc(Cl)ccc1Sc1ccccc1C(=O)O	i	1.1	·	·	·	104	·
COc1ccc(-c2csc(N3C(=O)CNC3=S)n2)cc1	i	1	-3	14	116	102	-0.8
O=C(NCc1ccccc1)Nc1cc(Cl)ccc1Cl	i	1	·	·	·	99	·
COc1ccc(Oc2c(C)oc3c(CN(C)C)c(O)ccc3c2=O)cc1	i	0.9	14	-36	73	104	-7.0
CCn1c2ccccc2c2cc(NC(=O)C(=O)N3CCOCC3)ccc21	i	0.9	1	·	·	109	·
CCc1ccc2c(c1)C(NC(C)=O)C(=O)N2CC (stereo not drawn)	i	0.97	-1	·	·	107	-2.6
CC(Oc1ccc(Cl)cc1)c1ccnn1S(C)(=O)=O (stereo not drawn)	i	1	-8	44	66	109	-3.0
CCC(Nc1ccc(OC)cc1)C(=O)N/N=C/c1ccc([N+](=O)[O-])cc1 (stereo not drawn)	i	0.89	-5	17	145	102	0.3
O=C(N/N=C/c1ccco1)c1cc(-c2ccc(Br)s2)[nH]n1	i	1.1	·	·	·	91	·
C/C(=N\NC(=O)c1cccc(S(=O)(=O)N2CCOCC2)c1)c1cc2ccccc2o1	i	0.82	·	·	·	91	·
Cc1[nH]nc(Nc2ccc(Br)cc2)c1[N+](=O)[O-]	i	0.85	·	·	·	103	·
CCS(=O)(=O)n1nc(-c2ccco2)nc1SC	i	0.88	-4	10	164	97	-0.5
O=C(NCC1CCCO1)C1c2ccccc2C(=O)N1C1CCCCCCC1 (stereo not drawn)	·	·	5	0	119	95	0.3
COC(=O)C1=C(C)C(c2ccc(OC)cc2)NC(=O)N1 (stereo not drawn)	i	1.1	-1	7	104	99	·
O=C(CCS(=O)(=O)c1cccc2nsnc12)N1CCN(c2ccccc2F)CC1	i	1	-2	-6	135	102	-3.2
COc1ccc(NC(=O)c2ccccc2[N+](=O)[O-])cc1OC	i	0.95	-19	-8	112	114	-0.7
COC(=O)C1CCN(C(=O)c2ccc(OC3CCN(Cc4ccccn4)CC3)cc2)CC1	i	0.93	0	·	·	107	·
C/C(=N/NC(=O)CNC(=O)COc1cccc(C)c1)c1ccco1	i	0.93	·	·	·	109	·
Cc1ccc(C(C)C)c(OCC(=O)N/N=C/c2ccc(S(=O)(=O)O)o2)c1	i	0.6	·	·	·	101	·
COC(=O)c1ccc(C)c(NC(=O)c2nn(C)c(=O)c3ccccc23)c1	i	0.82	9	·	·	98	-1.9
COc1cc(OC)cc(C(=O)O/N=C(\N)c2ccccn2)c1	i	1	·	·	·	106	·
CCn1c2ccccc2c2nnc(SCC(=O)NC3CCS(=O)(=O)C3)nc21 (stereo not drawn)	i	0.96	1	0	93	51	-1.5
Cc1ccc(Nc2nc(-c3c(C)nc4ccccn34)cs2)cc1	i	0.53	-7	·	·	102	-1.5
C/C(=N\NC(=O)Cn1nc(C)c([N+](=O)[O-])c1C)c1ccc(O)cc1	i	0.98	1	·	·	121	-0.7

Compound activity (PubChem BioAssay)
